# HIV TAR-Tat – HIV-1 TAR-Tat binding disruption | z-score (concentration not given with the values) | HIV-1 TAR RNA, Tat peptide displacement FRET; hits give high values | hit rate 0.6% among 100,000;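 note: score is relative to mean and SD of negative controls; some compounds called inactive have numbers as strong as hits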
# CDC25B CDK2 inh – human CDC25B-CDK2/CyclinA binding inhibition; P30305+P24941; HTRF CDC25B-CDK2/CyclinA binding, anti-His/anti-Flag; hits give high values; z-score (no concentration beside the values); hit rate 0.72% among 94,000; AID 1259370;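 note: score is relative to mean and SD of negative controls; strong numbers were not always called active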
# * = called active by the depositor; nt = no result given.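 Rule for the calls: active = z-score from 3 up in half or more of its runs; inactive = the rest.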
mol	HIV TAR-Tat	CDC25B CDK2 inh
COc1ccc(OCC(=O)OCc2cc(=O)n3oc(C)cc3n2)cc1	0.81	nt
CC(C)N1CC(COc2ccc(Cl)cc2Cl)OC1=O (stereo not drawn)	nt	-1.21
O=C(CC1=NS(=O)(=O)c2ccccc2N1)N1CCN(C(c2ccccc2)c2ccccc2)CC1	1.51	nt
Cc1ccc(-c2nn(-c3ccccc3)cc2C2SCC(=O)N2Cc2ccccc2)o1 (stereo not drawn)	0.64	-2.51
c1ccc(-c2cn(-c3ccccc3)c3ncnc(N4CCC5(CC4)OCCO5)c23)cc1	nt	-3.64
COc1ccc(S(=O)(=O)NCc2cccnc2)c2ccccc12	2.51	0.15
O=C(Nc1nc2ccccc2s1)C(=O)Nc1nc2ccccc2s1	nt	-0.48
CCOC(=O)c1nc(N2CCC(c3ccccc3)C2)c2c(C)noc2n1 (stereo not drawn)	-0.68	nt
c1ccc(-c2nnc(CN3CCCc4ccccc43)o2)cc1	-0.12	-0.9
CCN1C(=O)c2cccc3c(S(=O)(=O)Nc4ccccc4O)ccc1c23	-3.45	1.79

# The list goes on:
mol	HIV TAR-Tat	CDC25B CDK2 inh
C=CCSc1nc2c(c(=O)[nH]1)C(c1ccncc1)C(C(=O)OC(C)C)=C(C)N2 (stereo not drawn)	1.35	-0.27
CCCCN(C)S(=O)(=O)c1cc(-c2cc(C)no2)ccc1C	0.91	nt
CCN(CC)S(=O)(=O)c1cccc(C(=O)Nc2ccc(I)cc2)c1	nt	-3.28
Cc1nn(CC(=O)NCCC2=CCCCC2)c(=O)c2cccn12	1.09	-2.18
O=C(Cn1nc2c(cc1=O)CCCC2)Nc1ccc(Br)cc1	1.5	nt
CCCCc1c(C)nc2c(-c3ccc(Cl)cc3)c(C)[nH]n2c1=O	1.68	-1.44
COc1cc(C(=O)NC(NC(=S)Nc2cccc3ccccc23)C(Cl)(Cl)Cl)cc(OC)c1OC (stereo not drawn)	nt	5.06*
Cn1cc2c(c1-c1ccc(Br)cc1)c(=O)n(C)c(=O)n2C	0.96	-1.23
CCOc1ccc(-n2c(=O)c(C#N)cc3c(=O)n4cccc(C)c4nc32)cc1	1.27	-3.93
CC(C)CC1N=C2c3ccccc3N=C(SCC(=O)Nc3ccc(F)cc3F)N2C1=O (stereo not drawn)	0.42	nt

# Three consecutive entries already listed, quoted:
mol	HIV TAR-Tat	CDC25B CDK2 inh
C=CCSc1nc2c(c(=O)[nH]1)C(c1ccncc1)C(C(=O)OC(C)C)=C(C)N2 (stereo not drawn)	1.35	-0.27
CCCCN(C)S(=O)(=O)c1cc(-c2cc(C)no2)ccc1C	0.91	nt
CCN(CC)S(=O)(=O)c1cccc(C(=O)Nc2ccc(I)cc2)c1	nt	-3.28

# Back to the main list, starting 3 compounds before the break.
mol	HIV TAR-Tat	CDC25B CDK2 inh
Cn1cc2c(c1-c1ccc(Br)cc1)c(=O)n(C)c(=O)n2C	0.96	-1.23
CCOc1ccc(-n2c(=O)c(C#N)cc3c(=O)n4cccc(C)c4nc32)cc1	1.27	-3.93
CC(C)CC1N=C2c3ccccc3N=C(SCC(=O)Nc3ccc(F)cc3F)N2C1=O (stereo not drawn)	0.42	nt
CCOC(=O)C1CCCc2c1[nH]c1c(C(=O)O)cccc21 (stereo not drawn)	nt	-1.81
Fc1cccc(Cl)c1Cc1nnc(-c2ccccc2)o1	1.35	-2.17
Clc1cccc(Nc2nc(-c3ccncc3)nc3ccccc23)c1	0.22	-0.12
CCCCNC(=O)c1cc2n(n1)CC(C)(C(=O)NC1CCCC1)N(CCC)C2=O (stereo not drawn)	1.01	nt
CC1CCCCN1C(=O)Cc1noc2ccccc12 (stereo not drawn)	1.58	0.27
CCc1nn(C(CC)C(=O)NC2CCCc3ccccc32)c(=O)c2cc3oc(C)cc3n12 (stereo not drawn)	-1.54	-2.13
Cc1ccc2nc(-c3ccc(F)cc3)cn2c1	nt	1.44
CC1(C)CC(=O)c2cc(C(=O)O)c(=O)[nH]c2C1	0.63	nt
COc1ccccc1Nc1ncc(F)c(Nc2ccccc2OC)n1	-0.05	-3.14
CCCc1cc(=O)n2nc(N(C)CC(=O)NC3CCCC3)sc2n1	3.52	-0.46

# Going on with the list:
mol	HIV TAR-Tat	CDC25B CDK2 inh
COC(=O)c1sccc1S(=O)(=O)Nc1ccc(N(C)C)cc1	0.99	nt
COc1ccc2cc(S(=O)(=O)c3ccc(C)c(C)c3)c(=O)oc2c1	nt	-0.84
CCN(CC)S(=O)(=O)c1ccc2c(c1)nc(CN1CCN(S(=O)(=O)CC)CC1)n2C	0.61	nt
CCOC(=O)c1nc(N2CCCC(C)C2)c2ccccc2n1 (stereo not drawn)	0.56	nt
CC(=O)N1N=C(c2ccc(C)o2)OC1Cn1nnc2ccccc21 (stereo not drawn)	1.33	nt
COC(=O)/C(C#N)=C1\NC(C)=NC(SC)=C1C#N	nt	-0.95
COc1ccc(C2C3=C(Nc4nc(N)[nH]c(=O)c42)c2ccccc2C3=O)cc1 (stereo not drawn)	3.7*	13.8*
Cc1ccc(CNC(=O)CCS(=O)(=O)c2cc3c(cc2Cl)NC(=O)CO3)o1	-1.15	nt
Cn1c2ccccc2c2cnn(CC(=O)N3CCc4ccccc4C3)c(=O)c21	-1.35	-3.22
COc1ccccc1Nc1nn2c(=O)c3ccccc3nc2s1	2.55	nt

# (next part)
mol	HIV TAR-Tat	CDC25B CDK2 inh
O=C(OCc1ccc(Cl)cc1Cl)c1cccs1	nt	-0.78
O=c1[nH]c(C2CCN(S(=O)(=O)Cc3ccc(F)cc3)CC2)nc2c1nnn2Cc1ccccc1	-1.29	-0.24
OC(CNc1ccc(Br)cc1F)Cn1nnnc1-c1ccccc1 (stereo not drawn)	1.38	-1.18
CCc1nnc(OCC(=O)NCCCOC(C)C)c2cc3cc(F)ccc3n12	-1.63	-2.02
O=C1CN(Cc2c(F)cccc2Cl)S(=O)(=O)c2ccccc2N1Cc1ccc(F)cc1	0.89	nt
CC1=C(C(=O)N2CCc3ccccc32)C2(CCCCC2)OC1=O	1.79	-1.73
COc1ccc(C(=O)OCc2cc(=O)n3cc(C)sc3n2)cc1	0.85	nt
CC(=O)Oc1ccc2nc(-c3ccc4c(c3)C(=O)N(CC3CCCO3)C4=O)oc(=O)c2c1 (stereo not drawn)	nt	-1.19
O=c1oc(-c2ccccc2)nc2c1oc1ccc(Br)cc12	0.96	-0.33
N#CCS(=O)(=O)c1ccsc1	nt	-2.7

# One compound at a time, from the list above:
# Listed for `CC1=C(C(=O)N2CCc3ccccc32)C2(CCCCC2)OC1=O` = HIV TAR-Tat = 1.79; CDC25B CDK2 inh = -1.73
# Listed for `O=c1[nH]c(C2CCN(S(=O)(=O)Cc3ccc(F)cc3)CC2)nc2c1nnn2Cc1ccccc1` = HIV TAR-Tat = -1.29; CDC25B CDK2 inh = -0.24

# (further entries)
SMILES	HIV TAR-Tat	CDC25B CDK2 inh
FC(F)(F)c1cnc(NCCCNC(=S)Nc2cccnc2)c(Cl)c1	nt	1.86
O=C(Nc1ccc2[nH]c(=O)sc2c1)C1CCCCC1	1.66	nt
CCCSc1ncnc2scc(-c3ccccc3)c12	0.14	-2
Cc1[nH]c(=O)c(C#N)cc1-c1ccc2nccn2c1	nt	-0.9
CC(=O)Oc1ccccc1C1OC(c2cc(C)nc3ccccc23)=NN1C(C)=O (stereo not drawn)	1.59	nt
Cc1noc2ncnc(Nc3cccc(-c4ccc(CO)o4)c3)c12	0.89	nt
Cc1c(C(=O)N(C)c2ccc(F)cc2)sc2nc3n(c(=O)c12)CCCCC3	0.01	nt
Cc1cc(N2CCN(c3ccco3)CC2)n2nc(C)nc2n1	nt	0.8
Cc1oc2ncn(CC(C)C)c(=O)c2c1C(=O)O	0.17	-1.24
COc1cc(OC)c(NC(=O)Nc2cn(C)c(=O)c3ccccc23)cc1Cl	1.4	nt
CCOC(=O)c1c(NC(=O)CSc2nc3c(c(=O)[nH]2)CCC3)sc2c1CCC(C)C2 (stereo not drawn)	2.37	0.14
CCc1ccc(-c2cc(C)no2)cc1S(=O)(=O)Nc1ccc(Cl)cc1F	0.63	nt
CCOc1cc(-c2ccc(OC)cc2)nc2ccc(N)cc12	0.97	-1.69
CCn1nc(C)c([N+](=O)[O-])c1C(=O)NCC(=O)c1ccc(Cl)cc1	nt	-1.58
CCOC(=O)N1CCC(NS(=O)(=O)c2ccc3c(c2)CC(C)N3C(C)=O)CC1 (stereo not drawn)	-0.21	nt
Cc1cc(C)nc(NNC(=O)CC(=O)NNc2nc(C)cc(C)n2)n1	nt	0.15
O=C(CSc1nnc(-c2cc3ccccc3[nH]2)o1)Nc1nccs1	1.05	-1.57
CCOc1ccc(OCC)c(NS(=O)(=O)c2cc3[nH]c4c(c3cc2CC)C(=O)CCC4)c1	0.74	nt
CCc1nnc(NC(=O)c2cc(Br)ccc2Cl)s1	1.23	-2.15
CC1CN(C(=O)Nc2ccccc2Cl)c2ccccc2S1 (stereo not drawn)	0.03	nt

# The results go on:
SMILES	HIV TAR-Tat	CDC25B CDK2 inh
CC1CCCCN1c1nc(-c2ccccc2O)nc2ccccc12 (stereo not drawn)	nt	-0.78
CC(NS(C)(=O)=O)C(c1cccs1)N1CCN(c2ccccc2)CC1 (stereo not drawn)	nt	-1.46
CC(=O)c1sccc1NC(=O)CSCc1ccc(Cl)cc1	nt	-1.41
Cc1nnc2c(NCCN3CCOCC3)nc3ccc(C(=O)c4ccccc4)cc3n12	2	nt
CCCc1cc(NCCN(C)C)n2c(nc3ccccc32)c1C#N	0.03	-0.71
CNc1nc(C(N)=O)nc(N2CCOCC2)n1	-1.67	-0.75
COC(=O)c1c(-c2ccc(Cl)cc2)noc1NCc1ccco1	0.34	nt
CC1=NCCN1S(=O)(=O)c1ccc(Br)c(C)c1	-0.26	0.85
COc1cc(Cl)c(Nc2c(-c3cc(C)c(C)cc3C)c(=O)c2=O)c(OC)c1	0.86	nt
CCOc1ccc(C2=NS(=O)(=O)c3cc(S(=O)(=O)N4CCOCC4)ccc3N2)cc1OCC	0.34	nt
COc1ccc(-c2coc3c(C)c4oc(=O)c5cc(OC)ccc5c4cc23)cc1	-0.16	0.84
Brc1ccc2c(c1)C1CC(c3cccs3)=NN1C1(CCCC1)O2 (stereo not drawn)	nt	1.33
Cn1cc(S(=O)(=O)N2CCCC2)cc1C(=O)Nc1ccc(F)c(Cl)c1	2.84	nt
O=C(c1cc(-c2cccs2)[nH]n1)N1CCN(c2ccccc2)CC1	-1.37	nt
CC(C)c1ccc(S(=O)(=O)c2c[nH]c3cc4c(cc3c2=O)OCO4)cc1	0.99	-0.81
CCc1nnc2c(NCCc3ccccc3)nc3ccccc3n12	0.72	0.42
NNC(=O)c1nc(-c2ccc(OC(F)(F)F)cc2)no1	nt	-2.17
Cc1ccc(NS(=O)(=O)c2cc3c(cc2C)N(C)CCO3)cc1F	1.38	nt
Cc1nc2ccc(S(=O)(=O)N(C)CC(=O)NC3CCCCC3)cc2s1	0.4	1.18
Cn1c(CN2CCCCC2)nc2ccccc21	2.27	-1.4

# Carrying on.
SMILES	HIV TAR-Tat	CDC25B CDK2 inh
COC(=O)c1cc(S(=O)(=O)N2CCC(CN3CCc4ccccc4C3)CC2)c[nH]1	0.82	nt
CCc1nc2nc(C)cc(N3CCN(c4cccc(Cl)c4)CC3)n2n1	-0.29	-0.82
COC(=O)c1ccccc1SCC(C)=O	nt	-0.76
O=C(Nc1nccs1)c1ccc(N2C(=O)CCS2(=O)=O)cc1Cl	0.96	-1.57
CSc1cccc(NC2c3ccccc3C(=O)N2c2cccnc2)c1 (stereo not drawn)	0.52	0
c1ccc(CCNc2ccc3nnc(-c4ccccc4)n3n2)cc1	-2	-0.58
O=C(CCC(=O)N1CC2CCCN2c2ccccc21)NCCN1CCCC1 (stereo not drawn)	-4.19	nt
COC(=O)C1=C(OC(=O)c2ccccc2OC)c2ccccc2S(=O)(=O)N1C	-1.02	-0.66
Clc1ccccc1OCCSc1nc2ccccc2[nH]1	0.64	-0.18
NC(=O)C1CCN(C(=O)Cc2csc(NC(=O)NC3CCCC3)n2)CC1	1.99	nt
Cc1cccc(N(C)S(=O)(=O)c2cc(-c3cc(C)no3)ccc2C)c1	1.66	nt
Cc1nc(-c2ccc(C(=O)Nc3nccs3)cc2)no1	0.07	nt
CCN(CC)S(=O)(=O)c1cc(F)ccc1CN1C(=O)c2cccnc2C1=O	1.41	nt
O=C(OCCN1CCOCC1)C1(c2ccccc2)CCCCC1	nt	-0.67
Cc1ccc(-c2ccnc3[nH]n(-c4nc(C)cc(C)n4)c(=O)c23)cc1	1.88	-1.73
O=C1c2cccc3c(N4CCCCC4)ccc(c23)C(=O)N1c1ccc(O)cc1	-3.88	-2.6
CC(=O)N1CCc2cc(Br)cc(S(=O)(=O)N3CCC(CN4CCC(C)CC4)CC3)c21	1.04	nt
Cc1cc(-c2nnc(SCC(=O)c3ccc(Cl)cc3)o2)no1	-0.16	-6.58
CCC(C)(C)NC(=O)C1CCN(c2cnccn2)CC1	0.45	-2.08
CN(C)S(=O)(=O)N(CC(=O)NCCSc1ccccc1)c1ccccc1	-1.14	-2.08

# Next section
SMILES	HIV TAR-Tat	CDC25B CDK2 inh
COc1ccccc1CNc1nc2ccccc2c2nncn12	0.86	-0.55
CCCn1c(CN2CCN(C(=O)OCC)CC2)nc2c1c(=O)n(C)c(=O)n2C	1.09	-2.04
Cc1ccc(-c2nc3ccccc3c3nnc(SCC(=O)NC(C)C)n23)cc1	0.18	nt
CCc1nn2c(=O)cc(CSc3nc(C)cc(=O)[nH]3)nc2s1	1.04	-0.92
CCC1=Nc2cc(C(=O)NC3CC3)ccc2Sc2ccc(C)cc21	0.77	nt
Cn1cc(NC(=O)N2CCN(c3ccccc3)CC2)c2ccccc2c1=O	-0.63	nt
O=C(NCCCN1CCCCC1)c1cc(=O)[nH]c2ccc(S(=O)(=O)N3CCCC3)cc12	nt	-0.6
CC(=O)N[C@@H](Cc1c[nH]c2ccccc12)C(=O)O	-0.21	nt
Cc1ccc(S(=O)(=O)NCCc2sc(-c3ccc(F)cc3)nc2C)c(C)c1	2.47	nt
Cc1c(NC(=O)CSc2nnc3c4ccccc4n(C)c3n2)c(=O)n(-c2ccccc2)n1C	1.62	1.19
